# Mtb bLac sens = beta-lactam sensitization of Mtb H37Rv; M. tuberculosis H37Rv growth with meropenem, percent inhibition; hits of this screen are not shown here; inhibition, % at 25 µM; 330,000 tested, 0.27% active; AID 434955;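 active means about 74% or more and at least 40 points above the plate without the antibiotic, then above 30% in a dose series; inconclusive means first-round hits that could not be retested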;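 further: growth measured after seven days incubation then overnight dye step; 0% = bacteria only wells and 100% = bacteria with antibiotic; twin plates without the antibiotic show which effects depend on it; some results filed as inactive read as strong as hits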
# RecA splice inh = inhibitors of M. tuberculosis RecA intein splicing | P9WHJ3 | cell-free RecA intein splicing, fluorescence | 290,000 tested, 0.75% active | AID 2221 | inhibition, %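 (about 9 µM by stock and volumes)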; in the data active means inhibition above about 30%; inconclusive means no clear call, values can overlap the other calls;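 further: 0% = vehicle wells and 100% = reference inhibitor control wells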
# Target sequence (P9WHJ3 whole entry, looked up, canonical isoform): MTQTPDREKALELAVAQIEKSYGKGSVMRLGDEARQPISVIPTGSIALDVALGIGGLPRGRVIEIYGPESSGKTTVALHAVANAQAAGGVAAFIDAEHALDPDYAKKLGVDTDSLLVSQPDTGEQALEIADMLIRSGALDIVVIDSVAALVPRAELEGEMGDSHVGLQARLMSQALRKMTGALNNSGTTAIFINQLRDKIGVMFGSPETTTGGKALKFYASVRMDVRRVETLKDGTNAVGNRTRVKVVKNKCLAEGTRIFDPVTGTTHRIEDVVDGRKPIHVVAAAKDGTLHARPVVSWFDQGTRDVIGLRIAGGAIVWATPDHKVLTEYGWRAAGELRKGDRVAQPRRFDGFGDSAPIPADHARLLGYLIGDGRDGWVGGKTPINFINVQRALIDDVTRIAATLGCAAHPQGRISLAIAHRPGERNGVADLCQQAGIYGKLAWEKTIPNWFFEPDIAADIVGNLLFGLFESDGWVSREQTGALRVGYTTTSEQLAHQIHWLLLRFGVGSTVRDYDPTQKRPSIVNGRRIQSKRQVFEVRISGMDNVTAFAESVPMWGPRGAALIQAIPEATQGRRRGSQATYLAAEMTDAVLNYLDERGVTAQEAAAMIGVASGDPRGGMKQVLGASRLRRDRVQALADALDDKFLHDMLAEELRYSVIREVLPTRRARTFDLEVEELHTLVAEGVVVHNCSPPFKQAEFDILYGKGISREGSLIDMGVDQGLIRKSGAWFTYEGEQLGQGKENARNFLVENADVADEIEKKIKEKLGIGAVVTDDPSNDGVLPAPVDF
# YopH inh = YopH (Yersinia) phosphatase inhibition | fluorescence Ex485/Em525 | inhibition, %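 (about 10 µM by stock and volumes)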 | 140,000 tested, 0.16% active;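 active means inhibition of 50% or more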;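 further: controls were vehicle for no effect and minimum signal wells for full effect; inactives centre near -20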
# Arbovirus inh = arbovirus infection inhibition; arbovirus infection cell-based antiviral screen; inhibition, % at 10 µM; 200,000 tested, 0.37% active; AID 1251;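 active means inhibition from about 30%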;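 further: bluetongue infection of BSR cells; cell survival read as ATP light after 72 h; 0% = infected wells without compound and 100% = uninfected wells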
# Mtb growth = M. tuberculosis H37Rv growth inhibitors, H37Rv strain (AID 1626) | M. tuberculosis H37Rv growth inhibition; higher % means a stronger effect | inhibition, % at 10 µM; hits with a dose series show IC50 in µM | 220,000 tested, 0.95% active;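 active means confirmed in a dose series; inconclusive means inhibition above 80% but not taken into the dose series; inactive means below 80% or under 30% at every dose of the series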;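 further: bacteria incubated seven days before Alamar blue readout; 0% = bacteria only wells and 100% = bacteria with antibiotic wells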
# The depositor's hits bear a star; ? = inconclusive; / = no result given. Only part of the results is shown; the hit share may differ from the screen's.
SMILES,Mtb bLac sens,RecA splice inh,YopH inh,Arbovirus inh,Mtb growth
CC(=O)Nc1ccc(OCC(O)Cn2ccnc2C)cc1 (centres undefined),2,-2.7,/,0,-4%
Cc1nc(SC(C)C(=O)Nc2cccc(C(F)(F)F)c2)c2c(C)c(C(=O)O)sc2n1 (centres undefined),-8,5.9,/,/,-8%
CCc1ccc(NC(=O)CSc2nc3cc(C(=O)OC)ccc3c(=O)n2CC2CCCO2)cc1 (centres undefined),-18,-1.4,-11,-5,-3%
O=C1/C(=C/c2ccncc2)CCC/C1=C\c1ccncc1,/,7.3,/,-29,?
COc1cccc(-c2csc(N3CCN(C(=S)Nc4cccc(Cl)c4)CC3)n2)c1,-9,0.1,-18,5,3%
COCCOC(=O)C1=C(C)NC(=O)NC1c1c(OC)ncnc1OC (centres undefined),-7,1.0,-31,1,-1%
COC(=O)c1sc(-c2ccccc2)cc1NC(=O)C1CC1,6,0.9,/,-3,6%
CC(=O)c1ccc(N2CCN(C(=O)CCCn3c(=S)[nH]c4cc5c(cc4c3=O)OCO5)CC2)cc1,-5,/,-10,18,-5%
CCCCCCC(=O)NNC(=O)CC(=O)Nc1ccccc1C(=O)O,12,-1.7,-46,-5,-6%
COc1ccc(-n2cc(-c3ccccc3)c3c(N4CC(C)OC(C)C4)ncnc32)cc1 (centres undefined),64,7.8,/,-28,-3%
O=C(CC1CCCCC1)N1CCCC(c2nc(-c3ccc(S(=O)(=O)N4CCCC4)cc3)no2)C1 (centres undefined),4,1.9,0,-16,8%
CC(C)(C)CN1CCC(Oc2cccc(C(=O)N3CCNC(=O)C3(C)C)c2)CC1,-2,-0.8,/,/,/
CC(C)(C)c1ccc(NC(=S)NCc2cccnc2)cc1,-9,1.4,/,/,4%
O=C(CSCc1cccc(Cl)c1)Nc1ccccc1-c1ccccc1,7,3.8,2,-6,6%
c1ccc(OCCCn2ccnc2)cc1,-2,-1.2,/,/,/
O=C(CN1CCN(c2ccccn2)CC1)Nc1cc(C(F)(F)F)ccc1Cl,82,7.5,-31,-6,18%
CCOC(=O)COc1ccc2c(=O)c(-c3ccccc3OC)coc2c1,100,0.0,/,2,1.1µM*
O=C(CCc1nnc2ccc(NCc3ccco3)nn12)Nc1cc(F)ccc1F,6,5.5,/,/,/
N#Cc1c(N)n(CCNC(=O)c2ccc(Cl)cc2)c2nc3ccccc3nc12,-1,-67,-23,0,5%
O=C(NNC1CC(=O)N(c2ccc(F)cc2)C1=O)c1cccnc1 (centres undefined),5,-3.4,/,/,/
COc1ccc2cc(C#N)c(SCC(=O)N3CC(=O)Nc4ccccc43)nc2c1,-3,-0.1,/,/,2%
Cc1ccc(NC(=O)CCC(=O)NNC(=O)c2ccco2)c(C)c1,-8,-0.1,-14,5,-9%
O=C(Cc1ccccc1)Nc1ccc(NC(=O)c2ccco2)cc1,1,-1.6,/,/,/
CC1C(=O)N(Cc2ccc([N+](=O)[O-])cc2)c2ccccc2N1C(=O)C1CC1 (centres undefined),-5,2.3,/,0,-2%
CNC(C(=O)c1ccccc1)C(OC(C)=O)c1cccc([N+](=O)[O-])c1 (centres undefined),1,1.7,/,/,-6%
COc1ccc(NC(=O)c2sc3ncn(CC(=O)N4CCN(c5ccccn5)CC4)c(=O)c3c2C)cc1OC,5,1.6,/,/,/
Cc1sc2ncn(CC(=O)NCCCC(=O)Nc3ccc(C(C)C)cc3)c(=O)c2c1C,5,-2.2,/,/,/
CC(=O)N1CCN(C(=O)C(Cc2c[nH]c3ccccc23)NC(=O)c2ccccc2Cl)CC1 (centres undefined),-2,1.2,/,/,/
Oc1ccc(Br)cc1/C=N/N1CCN(Cc2cccc3ccccc23)CC1,3,-0.5,/,/,-7%
N/C(=N\OS(=O)(=O)c1ccc2ccccc2c1)c1ccccn1,/,/,/,4,6%
O=C(CSc1nnc(SCc2ccccc2)s1)N/N=C/C=C/c1ccccc1[N+](=O)[O-],-2,3.0,-12,5,/
CC1(C)NC(=O)N(CCCCOc2ccc(Br)cc2Cl)C1=O,-17,0.4,-25,7,0%
Cc1[nH]c2ccc(-c3n[nH]c(=S)n3Cc3ccccc3)cc2c1C,-1,3.7,-19,-8,2%
COc1ccc2[nH]c(C(=O)N/N=C/c3cc(OC)c(OC)c(OC)c3)cc2c1,-5,-4.1,/,/,/
CC1(C)Cc2c(sc(NC(=O)C(=O)N3CCCC3)c2C#N)CO1,-8,0.3,/,/,/
COC(=O)c1ccccc1NC(=O)NCc1ccco1,-10,-0.8,-2,-7,-4%
Cc1ccc(NC(=O)C2CCN(S(=O)(=O)c3ccc(F)cc3)CC2)cc1,-3,2.0,-26,3,-7%
O=C(COC(=O)c1cc(Cl)ccc1Cl)NC1CCCC1,94,0.1,/,/,/
N#Cc1c(SCC(=O)Nc2cccc(C(F)(F)F)c2)sc2c(O)cc(=O)[nH]c12,3,0.4,/,/,/
O=C(NCc1ccc(Cl)s1)C1CCC(=O)N(CCc2ccccn2)C1 (centres undefined),-5,-0.1,/,/,/
CC(=O)NC1=NN(C(C)=O)C(C)(CCS(=O)(=O)c2ccc(Cl)c(Cl)c2)S1 (centres undefined),4,-0.2,-30,0,/
Cc1ccc(NC(=O)COc2cccc(C)c2C)cc1S(=O)(=O)N1CCCCCC1,6,5.5,/,/,/
CCCCNC(=O)N1CCN(C/C=C/c2ccccc2)CC1,8,1.0,/,-5,6%
O=C1c2ccccc2C(=O)N1CCN1CCOCC1,-3,0.7,8,5,0%
O=C(Nc1ccccc1NC(=O)c1ccccc1Cl)c1ccccc1Cl,3,-2.2,/,/,/
Cc1ccnc(N2C(=O)c3cccc4c([N+](=O)[O-])ccc(c34)C2=O)c1,101,-90,2,-40,?
COc1ccccc1C1NC(=O)NC(C)=C1C(C)=O (centres undefined),-10,-2.0,-37,2,-12%
COC(=O)CSc1nc(NC(C)C)nc(N(C)C)n1,15,0.6,/,3,/
O=C(c1ccco1)N1CCN(Cc2cccnc2)CC1,1,-6.8,-7,3,-3%
CCOCCCNC(=S)N1CCC(NC(=O)C2CCCCC2)CC1,6,1.1,/,4,8%
COc1ccc(NC(=O)C2CC(=O)OC23CCOC(C)(C)C3)cc1 (centres undefined),-5,-3.5,-5,12,-1%
Cc1ccc(S(=O)(=O)N[C@H](C(=O)N2CCC(C(=O)NCC(=O)O)CC2)C(C)C)cc1,-4,-3.8,-21,1,-1%
O=S(=O)(c1ccccc1)N1CCN(C2CCCCCCC2)CC1,-7,0.5,6,-11,-10%
CC(C)(C)OC(=O)NCc1ccc(NC(=O)c2nc[nH]c2C(=O)N[C@@H](Cc2ccccc2)C(=O)OC(C)(C)C)cc1,5,-0.8,/,/,23%
CCOC(=O)N1CCN(C(=O)COc2cc(=O)n(CC)c3ccccc23)CC1,-2,0.9,-30,-5,-22%
CC1=NN(c2ccccc2)C(=O)/C1=C/c1c(C)[nH]n(-c2ccc(C)cc2)c1=O,-7,-0.3,/,/,/
COc1ccc(N(CC(=O)NCc2ccc(F)cc2)C(=O)CCC(=O)Nc2nccs2)cc1,7,1.3,/,/,/
CCOC(=O)N/N=C/c1ccccc1OCc1ccc(Cl)cc1,-5,0.1,-31,1,5%
O=c1[nH]c2ccc(S(=O)(=O)N3CCCCC3)cc2o1,1,-1.3,-29,3,-9%
Cc1ccc(S(=O)(=O)/C=C/c2ccccc2)cc1,3,-6.3,-29,-13,14%

# More results:
SMILES,Mtb bLac sens,RecA splice inh,YopH inh,Arbovirus inh,Mtb growth
O=C(CN(C(=O)CCC(=O)Nc1nccs1)c1ccc(F)cc1)NCc1ccc(F)cc1,-3,-5.6,/,/,/
CCn1c(SCC(=O)Nc2cc(C)on2)nnc1-c1ccc(S(=O)(=O)N2CCCC2)cc1,-1,/,-16,-1,-6%
CC(=O)Nc1ccc(S(=O)(=O)NCCCCNS(=O)(=O)c2ccc(NC(C)=O)cc2)cc1,4,-0.3,/,/,/
COc1ccc(NC(=O)Nc2cccc3ccccc23)cc1OC,-2,0.7,/,/,/
CCCC(=O)Nc1sc(Cc2ccccc2)c(C)c1C(N)=O,0,-2.3,/,-9,-5%
O=C(NC(=S)Nc1nc2c(s1)CCCC2)c1ccccc1,1,-2.0,-6,6,18%
COc1ccc(Cl)cc1NC(=O)CN(C)C(=O)CN1C(=O)NC2(CCCC2)C1=O,-2,-1.6,/,/,/
CC1=C(C(=O)Nc2ccc(C)cn2)C(c2cnn(C)c2)C2=C(CCCC2=O)N1 (centres undefined),3,-16,-20,5,-6%
CC(C)NS(=O)(=O)c1ccc(OCC(=O)N2CCN(Cc3ccccc3)CC2)cc1,2,2.5,6,/,-10%
CCOP(=O)(OCC)C(Nc1ccc(OC)cc1)c1ccco1 (centres undefined),-5,-3.4,/,3,4%
CCC(SC1=Nc2ccccc2C2=NC(CC(C)C)C(=O)N12)C(=O)Nc1ccc2c(c1)OCO2 (centres undefined),4,0.3,-135,-6,3%
CC(C)C(C)N(Cc1ccc(C(=O)O)cc1)C(=O)c1ccc2ccccc2n1 (centres undefined),5,0.2,/,/,/
Cc1cc(Cl)nc(-c2ccccc2)n1,-3,4.0,/,-6,-5%
C#Cc1cccc(C(=O)N2CCCC(CCC(=O)NCc3ccccc3F)C2)c1 (centres undefined),-15,5.0,/,/,/
O=C(Cc1ccc(NS(=O)(=O)c2ccc(F)cc2)cc1)NCc1ccccc1,4,-1.3,-21,6,11%
O=S(=O)(Nc1ncn[nH]1)c1ccc(Cl)cc1,2,4.4,-3,-6,/
COc1ccc2c(c1)C(c1cccs1)=NNC(c1cccnc1)=N2,6,4.7,/,1,0%
COc1cc2c(cc1[N+](=O)[O-])n(C(C)C)c(=O)n2C(C)C,4,1.4,/,13,2%
O=C(NC1=NCCS1)c1ccc(Cl)c(S(=O)(=O)N2CCCCC2)c1,-7,-2.1,4,5,10%
O=C(Nc1ccccc1C(=O)N1CCCCC1)C1CCCCC1,-11,-1.4,-22,2,-7%
Cn1nc(-c2ccccc2)c(/C=N/O)c1Cl,2,4.4,/,-5,4%
Cc1cccc(Cn2cnc3c(nnn3Cc3ccccc3F)c2=O)c1,2,-1.5,1,4,12%
O=C(c1ccc(Br)cc1)C1CCc2occc2C1=O (centres undefined),0,-1.7,-36,2,3%
CCOC(=O)N1CCC(N2CCN(S(=O)(=O)CC)CC2)CC1,1,1.6,-54,9,-4%
S=c1[nH]nc(-c2ccccc2)n1/N=C/c1ccc(Cl)cc1,10,-0.5,/,/,/
O=C(NCC(c1cccs1)N1CCOCC1)c1ccccc1NS(=O)(=O)c1ccc(Br)cc1 (centres undefined),1,3.8,-29,0,7%
CCc1cc(=O)oc2cc(C)cc(OCC(=O)N3CCC[C@@H]3C(=O)O)c12,0,5.8,/,/,/
O=c1nc(N2CCOCC2)nc2n1CCO2,-5,3.8,-5,0,0%
COc1ccccc1N(CC(=O)NCc1ccccc1C)S(=O)(=O)c1ccc(C)cc1,1,1.0,/,/,/
COc1ccc([N+](=O)[O-])cc1Nc1ncnc2ccccc12,-1,1.7,/,-3,1%
CC(=O)c1cccc(NC(=O)N2CCOCC2)c1,-2,1.5,/,/,/
CC(=O)NC(NC(=S)Nc1cccc(Br)c1)C(Cl)(Cl)Cl (centres undefined),-8,-0.2,/,/,-1%
CC(C)(C)NS(=O)(=O)c1ccc2c(c1)oc(=O)c1cc(S(=O)(=O)NC(C)(C)C)ccc12,-3,1.0,-13,6,-2%
O=C(N/N=C/c1cccs1)/C(=C/c1ccccc1)NC(=O)c1ccccc1,-1,2.6,-7,-8,-3%

# Two entries from above in another layout.
compound | Mtb bLac sens | RecA splice inh | YopH inh | Arbovirus inh | Mtb growth
O=c1[nH]c2ccc(S(=O)(=O)N3CCCCC3)cc2o1 | 1 | -1.3 | -29 | 3 | -9%
Cc1ccc(S(=O)(=O)/C=C/c2ccccc2)cc1 | 3 | -6.3 | -29 | -13 | 14%

# Seven consecutive records out of the list so far:
SMILES,Mtb bLac sens,RecA splice inh,YopH inh,Arbovirus inh,Mtb growth
O=c1nc(N2CCOCC2)nc2n1CCO2,-5,3.8,-5,0,0%
COc1ccccc1N(CC(=O)NCc1ccccc1C)S(=O)(=O)c1ccc(C)cc1,1,1.0,/,/,/
COc1ccc([N+](=O)[O-])cc1Nc1ncnc2ccccc12,-1,1.7,/,-3,1%
CC(=O)c1cccc(NC(=O)N2CCOCC2)c1,-2,1.5,/,/,/
CC(=O)NC(NC(=S)Nc1cccc(Br)c1)C(Cl)(Cl)Cl (centres undefined),-8,-0.2,/,/,-1%
CC(C)(C)NS(=O)(=O)c1ccc2c(c1)oc(=O)c1cc(S(=O)(=O)NC(C)(C)C)ccc12,-3,1.0,-13,6,-2%
O=C(N/N=C/c1cccs1)/C(=C/c1ccccc1)NC(=O)c1ccccc1,-1,2.6,-7,-8,-3%
